# TRPML1 inh: qHTS for Inhibitors of the Human Mucolipin Transient Receptor Potential 1 (TRPML1); Mucolipin-1 (Homo sapiens), Q9GZU1; TRPML1-inducible cells, Ca2+ dye fluorescence, FDSS; hits give low values; inhibition of EC80 agonist-evoked calcium signal; activity change, negative = inhibition, % (concentration not given with the values); hit rate 0.02% among 390,000; AID 624415, 2012; in the data active means activity change below about -50%; inconclusive means about -30% to -50%; inactive means above about -30%;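 further: stimulus is agonist 54-4 at its EC80 concentration; on the % scale 0 is the no-effect control and ±100 the full control effect; compound concentration not given in the record; the text of the record puts the active cut at -80%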
# Target sequence (Q9GZU1 whole entry, looked up): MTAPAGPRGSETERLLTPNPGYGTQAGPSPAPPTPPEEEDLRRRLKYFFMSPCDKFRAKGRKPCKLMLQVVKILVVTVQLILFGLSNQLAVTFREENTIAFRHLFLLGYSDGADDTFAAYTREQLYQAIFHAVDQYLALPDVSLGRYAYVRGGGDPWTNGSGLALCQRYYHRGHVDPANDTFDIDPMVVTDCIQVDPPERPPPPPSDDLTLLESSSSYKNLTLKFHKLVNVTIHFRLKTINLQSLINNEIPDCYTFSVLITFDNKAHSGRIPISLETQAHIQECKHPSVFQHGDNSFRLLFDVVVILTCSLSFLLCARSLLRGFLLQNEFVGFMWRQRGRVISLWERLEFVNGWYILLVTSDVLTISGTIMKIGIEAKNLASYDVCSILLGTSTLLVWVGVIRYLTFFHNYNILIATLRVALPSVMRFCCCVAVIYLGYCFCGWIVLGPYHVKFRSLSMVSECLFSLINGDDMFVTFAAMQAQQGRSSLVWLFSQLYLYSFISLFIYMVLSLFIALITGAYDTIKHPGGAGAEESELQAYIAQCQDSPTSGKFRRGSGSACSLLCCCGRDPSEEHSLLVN
#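 Calcium fluorescence in TRPML1-DL cells induced overnight with Tet: a 110 s read after compound pin addition, then a 110 s antagonist read after challenge with 54-4 at 4 uM final (EC80).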
# TRPML1 agonist: qHTS for Agonists of the Human Mucolipin Transient Receptor Potential 1 (TRPML1) | TRPML1-expressing cells, Ca2+ dye fluorescence, FDSS; host cell line not named in the record; reference of the full effect not given here | activation, % (no concentration beside the values) | hit rate 0.12% among 410,000 | AID 624414, 2012; in the data active = activation above about 50%; inconclusive = about 30% to 50%; inactive = below about 30%; further: 0% is about no effect; the text of the record puts the active cut at 80%
#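 Agonist activity was taken from a 110 s kinetic Ca2+ dye read on the FDSS after pinning compounds onto TRPML1-DL cells. The cells were seeded at 1,500/well with Tet inducer, incubated about 16 h, then dye-loaded at room temperature.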
# Numbers without * were called inactive; u = inconclusive. Only part of the results is shown. The share of hits here may be higher or lower than overall.
Molecule	TRPML1 inh	TRPML1 agonist
Cc1ccc2c(=O)cc(C(=O)Nc3c(C)n(C)n(-c4ccccc4)c3=O)oc2c1C	24.9	-0.3
Cc1cccc(NC(=O)C(=O)NCC(c2ccc3c(c2)OCO3)N2CCOCC2)c1C (stereo not given)	-1.3	3.7
CN1CCN(Cc2c(O)ccc3cc(-c4ccccc4)c(=O)oc23)CC1	-14.2	8.7
COc1cc(OC)cc(C(=O)NCc2ccc3c(c2)CCN3C(=O)c2ccccc2)c1	u	-0.9
COc1ccc(Br)cc1[C@@H]1Nc2ccc(C(=O)O)cc2[C@@H]2C=CC[C@@H]21	-4.6	0.5
Cc1ccc(-n2ncc(C(=O)Nc3ccc4c(c3)OCCO4)c2C2CCN(C(=O)OC(C)(C)C)CC2)cc1	u	1.7
N#Cc1ccccc1NC(=O)C(=O)NCC(c1cccnc1)N1CCN(c2ccccc2)CC1 (stereo not given)	3.2	1.0
Cc1cc(NC(=O)COc2ccccc2)cc(-c2nc3ccccc3o2)c1O	-4.8	1.8
COc1ccc(CC(=O)Nc2ccc3nc(Nc4ccc(OC)cc4)cc(C)c3c2)cc1	2.7	-0.8
CCC1CCc2c(sc(NC(=O)C3c4ccccc4Oc4ccccc43)c2C(=O)OC)C1 (stereo not given)	-10.6	0.8
COc1ccc(OCC(=O)OCc2cc(=O)n3nc(C4CC4)sc3n2)cc1	26.5	1.3
O=C(NCCc1ccccc1)c1ccc2c(c1)N(Cc1ccc(Cl)cc1)C(=O)CS2	33.0	3.8
CCCCOc1ccc(Cn2c(=O)oc3ccc(C)cc32)cc1	u	3.8
Cc1ccc(N2CC(c3nnc(Cc4ccccc4Cl)o3)CC2=O)cc1 (stereo not given)	-9.5	-0.3
CCCC1=Nc2cc(C(=O)NCCOC)ccc2Sc2ccccc21	-4.0	0.5
COc1ccc(NS(=O)(=O)c2ccc3nc(-c4ccccc4)[nH]c3c2)cc1	5.9	-0.5
Cc1nc(-c2ccc(C)c(S(=O)(=O)N3CCC(C(=O)NCc4ccc(F)cc4)CC3)c2)no1	-20.3	2.3
CCc1ccccc1Nc1sc(C(=O)c2ccccc2)c(N)c1S(=O)(=O)c1ccccc1	20.5	2.4
Cc1ccc(C(=O)COC(=O)c2cccc(NC(=O)c3ccc(Br)cc3)c2)cc1	-5.4	-0.3
O=C(Nc1nc2c(s1)CCCCCC2)Nc1ccc(F)cc1F	-16.5	1.2
CN(C)c1ccc(CN2CCc3nc(N4CCN(c5ccccn5)CC4)ncc3C2)cc1	13.2	1.9
O=C(CSc1nc2c([nH]c3ccccc32)c(=O)n1-c1ccccc1)c1ccccc1	2.9	-0.1
CCCN(CCC)CCCNC(=O)c1nn(C)c2c1CS(=O)(=O)c1ccccc1-2	11.8	1.2
CC1CC=CC2C1C(=O)N(Cc1ccccc1)C2c1ccc(F)c(-c2ccc(N(C)C)cc2)c1 (stereo not given)	49.4	0.9
COC(=O)CN1C(=O)[C@@H]2[C@H](C1=O)[C@@H]1CC(C(=O)OC)=C[C@@H](C(=O)OC)C3C1=C(C(=O)[C@]3(C)NC(=O)c1ccccc1)[C@@H]2C (stereo not given in full)	9.4	0.4

# Entries of single compounds, quoted from the list. Order of screens: TRPML1 inh | TRPML1 agonist
# COc1ccc(OCC(=O)OCc2cc(=O)n3nc(C4CC4)sc3n2)cc1 as listed: 26.5 | 1.3
# COC(=O)CN1C(=O)[C@@H]2[C@H](C1=O)[C@@H]1CC(C(=O)OC)=C[C@@H](C(=O)OC)C3C1=C(C(=O)[C@]3(C)NC(=O)c1ccccc1)[C@@H]2C (stereo not given in full) as listed: 9.4 | 0.4
# O=C(NCCc1ccccc1)c1ccc2c(c1)N(Cc1ccc(Cl)cc1)C(=O)CS2 as listed: 33.0 | 3.8
# CN(C)c1ccc(CN2CCc3nc(N4CCN(c5ccccn5)CC4)ncc3C2)cc1 as listed: 13.2 | 1.9
# Cc1ccc(N2CC(c3nnc(Cc4ccccc4Cl)o3)CC2=O)cc1 (stereo not given) as listed: -9.5 | -0.3

# Further structures follow:
Molecule	TRPML1 inh	TRPML1 agonist
COc1cccc(CN(Cc2ccco2)c2cnc(S(C)(=O)=O)nc2C(=O)Nc2cccc(Cl)c2C)c1	-7.5	0.6
O=c1c(N2CCN(c3cccc(Cl)c3)CC2)csc2ccccc12	-9.1	1.6
Cc1ccc(C)c(N2CCN(C(=O)c3cc(C)nc4c3c(C)nn4-c3ccccc3)CC2)c1	8.2	0.2
O=C(NCc1cccc(Cl)c1)C1CCCN(c2nn3cc(-c4ccc(F)cc4)nc3s2)C1 (stereo not given)	-18.2	0.2
Cc1ccc(N2CCN(C(=O)NCc3noc4ccccc34)CC2C)cc1 (stereo not given)	-15.1	2.3
C=CCN(C(C(=O)OC)C(C)C)S(=O)(=O)C=C (stereo not given)	-14.2	0.7
O=C(CN1C(=O)CC(c2ccco2)Sc2ccccc21)Nc1ccc(C(F)(F)F)cc1 (stereo not given)	0.6	2.4
CCc1cccc(NC(=O)c2ccc(CNS(=O)(=O)c3ccc4c(c3)C(C)(C)C(=O)N4C)cc2)c1	2.0	-0.3
COc1cccc(-c2cn3c(n2)sc2cc(C(=O)NCCCc4ccccc4)ccc23)c1	-1.0	0.4
COc1ccc(C(=O)N(Cc2ccc(N(C)C)cc2)Cc2ccco2)cc1Cl	29.1	1.0
Cc1cccc(C(=O)n2nc(-c3ccco3)nc2NCc2ccccc2)c1	6.3	0.3
COc1cccc(Cn2c(C)c(CNC3CCCCC3)c(C(=O)O)c2C)c1	-11.5	2.7
Fc1cc(F)c2ncc3c(-c4ccccc4)nn(-c4cccc(Cl)c4)c3c2c1	-5.2	-0.2
CCOC(=O)c1cnn(-c2cccc(Cl)c2)c1C1CCN(C(=O)OC(C)(C)C)CC1	-15.8	-0.5
CCOCCCNC(=O)c1ccc(NC(=O)N2CCCCc3ccccc32)cc1	15.0	0.3
CC(=O)Nc1nonc1-c1nnc(SCC(=O)Nc2ccc(C)cc2)n1-c1ccccc1	1.3	-1.0
CCOC(=O)c1c(C)[nH]c(CCC(=O)Nc2ccc(C)c(F)c2)c1C	10.9	3.2
CCCCOc1ccc(C2=NC(c3ccccc3)=Nc3ccc(OC)cc3N2)cc1	-5.5	1.8
COc1ccc(N2CCN(S(=O)(=O)c3c(C)[nH]c(=O)[nH]c3=O)CC2)cc1	-2.6	-0.6
Cc1ccc(Cl)cc1N1CCN(S(=O)(=O)c2cc(Br)cc3c2N(C(=O)C2CC2)CC3)CC1	-22.2	0.7
CCN(Cc1ccccc1)S(=O)(=O)c1ccc(F)c(C(=O)Nc2cc(C(F)(F)F)ccc2Cl)c1	-10.3	7.1
Cc1ccc(NC(=O)N2CCN(c3cc(-c4noc(C)n4)ccc3C)CC2)c(C)c1	13.3	0.7
Cc1ccc(C(=O)c2oc3ccccc3c2NC(=O)Cc2ccccc2)cc1	13.5	3.1
COc1ccc(C(=O)N2CCN(c3nc4c(C)c(Cl)ccc4s3)CC2)c(OC)c1	29.0	-0.4
COc1ccccc1CNC(=O)c1cc2sccc2n1Cc1ccc(F)cc1	25.7	1.1

# Next section:
Molecule	TRPML1 inh	TRPML1 agonist
CC1CCCN(C(=O)c2cc3c(Cl)nc4ccccc4c3s2)C1 (stereo not given)	11.8	0.7
Cc1nn(Cc2ccc(F)cc2)c(C)c1NC(=O)c1cc(CC(C)C)on1	9.8	-0.1
Cc1ccc(C)c(N2CCN(C(=O)C(CC(C)C)NS(=O)(=O)c3ccc4nc(C)sc4c3)CC2)c1 (stereo not given)	-5.7	0.9
Cc1cccc(N2CCN(C(=O)CN3C(=O)COc4ccc(S(=O)(=O)N5CCOCC5)cc43)CC2)c1C	-8.4	2.7
CCOc1ccc(C(=O)N2CCC(c3nc4ccccc4o3)CC2)cc1	7.4	2.3
CCOc1ccccc1NC(=O)N1CCC(N2CCN(Cc3ccccc3)C(=O)C2=O)CC1	11.4	-0.9
CCOc1ccc(NC(=O)c2cc(S(=O)(=O)N3CCOCC3)ccc2F)cc1	7.7	0.9
CCn1c(=O)cc(SCC(=O)NCc2ccc(OC)cc2OC)c2ccccc21	21.1	1.4
NS(=O)(=O)c1ccc(NC(=O)CCn2c(=O)oc3ccccc32)cc1	-12.7	-0.5
O=C(Cn1c(=O)n(-c2ccc(Cl)cc2)c(=O)c2c3c(sc21)CCCCC3)Nc1cccc(Cl)c1	11.0	-0.8
Cc1ccc(C)c(Cn2c(=O)n(Cc3ccccc3)c(=O)c3sc4ccccc4c32)c1	14.0	-0.2
CCCCN(CC)C(=O)Nc1ccc2c(c1)N(C)C(=O)c1ccccc1S2	20.0	-0.1
COC(=O)c1ccccc1NC(=O)Cn1c(=O)n(-c2ccc(Cl)cc2)c(=O)c2c(C)c(C)sc21	-16.1	-0.8
O=S(=O)(c1ccccc1)n1nc(-c2ccc(Cl)cc2)nc1NCc1ccc(F)cc1	-1.5	0.4
CCCCNC(=O)c1cc(Sc2ccc(OCC)cc2)nc2ccccc12	-20.0	4.1
CCOc1ccccc1NC(=O)c1ccc(F)c(S(=O)(=O)NCc2ccc3c(c2)OCO3)c1	-2.2	3.2
CCOc1ccc(-c2cc(NC(=O)c3ccccc3)c(C(=O)OC)s2)cc1	-2.3	-0.4
COc1ccc(S(=O)(=O)c2cnc3ccc(Cl)cc3c2N2CCCCC2C)cc1 (stereo not given)	65.1	0.8
CCn1c(CNC(=O)c2ccc(OC)cc2)nnc1SCC(=O)Nc1ccc(C)cc1	9.6	-1.1
O=C(Cn1cc(S(=O)(=O)N2CCN(c3ccccc3F)CC2)c2ccccc2c1=O)Nc1cccc(C(F)(F)F)c1	-12.4	0.4
Cc1cccc(Nc2nnc(-c3ccc(C)c(S(=O)(=O)NCC4CCCO4)c3)c3ccccc23)c1 (stereo not given)	16.1	-0.5
Cc1ccc(CN2CCc3nc(N4CCN(c5ncccn5)CC4)ncc3C2)cc1	-5.7	0.5
CCOc1ccccc1NC(=O)c1ccc2c(c1)CCN2S(C)(=O)=O	-0.8	-0.5
CC(C(=O)NCc1ccc(Cl)cc1)n1ccc2cc(S(=O)(=O)N3CCCCCC3)ccc21 (stereo not given)	-0.4	-0.1
CCc1ccccc1NS(=O)(=O)c1ccc2c(c1)OCC(C(=O)N1CCCC1)O2 (stereo not given)	-20.8	0.3

# Later entries.
Molecule	TRPML1 inh	TRPML1 agonist
Cc1ccc(NC(=O)CSc2nc(-c3ccco3)nc3cc(=O)[nH]n23)cc1	8.5	-0.5
Cc1ccc(C)c(Cn2c(SCC(=O)NCc3ccccc3)nc3ccccc32)c1	34.1	0.6
COc1ccc(N2CCN(C(=O)Cn3nc(Cc4cccnc4)c4ccccc4c3=O)CC2)cc1	-3.9	1.2
COc1cccc2sc(N3CCN(C(=O)CS(=O)(=O)c4ccc(Cl)cc4)CC3)nc12	-17.8	1.0
COc1ccc(CNC(=O)c2ccc(CNS(=O)(=O)c3ccc(OC)cc3)cc2)cc1	5.1	-0.6
Cc1ccc(Cl)cc1NC(=O)Cn1ncc2c(C)n(Cc3ccccc3F)c(C)c2c1=O	21.8	1.9
CN1CC(=O)N(CC(=O)Nc2ccc(Cl)c(C(F)(F)F)c2)c2ccccc2C1=O	23.3	1.7
Cc1ccccc1CCNC(=O)c1ccc2c(c1)c(C)c(C)n2C	27.5	1.8
Cc1cc(C)c(NC(=O)CCN2CCCCC2)c(C)c1	-2.0	-1.0
Cc1ccc(N2CCN(S(=O)(=O)c3nnc(NC(=O)c4ccc(C(C)C)cc4)s3)CC2)cc1	-1.2	1.5
COc1ccccc1C(=O)n1nc(-c2ccccc2)nc1NCc1ccc(Cl)cc1	40.5	1.7
Cc1cccc(NC(=O)CSc2nc(=O)n(Cc3cccnc3)c3c2CCC3)c1	8.6	2.9
CCOc1ccc(NC(=O)C2CCN(c3nc4ccccc4[nH]3)CC2)cc1	-19.8	1.1
COc1cc(-c2noc(-c3ccc(N4CCCCC4)c([N+](=O)[O-])c3)n2)cc(OC)c1OC	19.6	-0.5
Cc1ccc(C(=O)NCC(c2ccc3c(c2)OCO3)N2CCOCC2)cc1 (stereo not given)	-24.5	0.6
Cc1ccc(Cl)cc1-n1nnc(-c2nc(-c3ccc4c(c3)OCO4)no2)c1C	30.2	0.6
O=C(CCCCn1c(=O)c2ccccc2n(Cc2ccccc2F)c1=O)NCc1ccccc1Cl	-18.3	-0.9
COc1cccc(-c2cc(C(=O)Nc3ccc(OC)cc3OC)no2)c1	-23.0	-0.1
Cc1ccc(CCNC(=O)c2c(C)nn(-c3ccc(F)cc3)c2-n2cccc2)cc1	24.3	4.5
CCCN(CCC)C(=O)Cn1c(SCc2cccc(C(F)(F)F)c2)nc2cccnc21	6.5	0.3
COc1cccc(-c2cc(C(=O)Nc3cnn(Cc4ccc(Cl)cc4Cl)c3)no2)c1	-9.6	0.9
N#Cc1ccc(-c2cccs2)nc1SCc1ccc(Br)cc1	14.3	0.3
CC1CCC(NC(=O)c2ccc3c(c2)N(Cc2ccccc2F)C(=O)c2ccccc2S3=O)CC1 (stereo not given)	48.2	-0.3

# Assay outcomes: PubChem, National Center for Advancing Translational Sciences (NCATS)
